# Screening data: PubChem BioAssay, several laboratories
# Mtb bLac sens: beta-lactam sensitization of Mtb H37Rv; M. tuberculosis H37Rv growth with meropenem, percent inhibition; hits of this screen are not shown here; inhibition, % at 25 µM; 330,000 compounds, 0.27% hits;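 active means about 74% or more and at least 40 points above the plate without the antibiotic, then above 30% in a dose series; inconclusive means first-round hits that could not be retested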;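 further: growth measured after seven days incubation then overnight dye step; 0% = bacteria only wells and 100% = bacteria with antibiotic; twin plates without the antibiotic show which effects depend on it; some results filed as inactive read as strong as hits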
# YopH inh: inhibitors of Yersinia enterocolitica YopH tyrosine phosphatase. 140,000 compounds, 0.16% hits. inhibition, %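 (about 10 µM by stock and volumes)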. fluorescence Ex485/Em525;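 active means inhibition of 50% or more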;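 further: controls were vehicle for no effect and minimum signal wells for full effect; inactives centre near -20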
# Mtb H37Rv: M. tuberculosis H37Rv growth inhibitors, H37Rv strain (AID 1626); M. tuberculosis H37Rv growth inhibition; higher % means a stronger effect; inhibition, % at 10 µM; hits with a dose series show IC50 in µM; 220,000 compounds, 0.95% hits;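 active means confirmed in a dose series; inconclusive means inhibition above 80% but not taken into the dose series; inactive means below 80% or under 30% at every dose of the series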;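 further: bacteria incubated seven days before Alamar blue readout; 0% = bacteria only wells and 100% = bacteria with antibiotic wells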
# Arbovirus anti: blocks arbovirus infection. arbovirus infection cell-based antiviral screen. inhibition, % at 10 µM. 200,000 compounds, 0.37% hits;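 active means inhibition from about 30%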;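 further: bluetongue infection of BSR cells; cell survival read as ATP light after 72 h; 0% = infected wells without compound and 100% = uninfected wells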
# RecA intein inh: inhibitors of M. tuberculosis RecA intein splicing | inhibition, %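 (about 9 µM by stock and volumes)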 | cell-free RecA intein splicing, fluorescence | 290,000 compounds, 0.75% hits | P9WHJ3; in the data active means inhibition above about 30%; inconclusive means no clear call, values can overlap the other calls;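 further: 0% = vehicle wells and 100% = reference inhibitor control wells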
# Target sequence (P9WHJ3 whole entry, looked up): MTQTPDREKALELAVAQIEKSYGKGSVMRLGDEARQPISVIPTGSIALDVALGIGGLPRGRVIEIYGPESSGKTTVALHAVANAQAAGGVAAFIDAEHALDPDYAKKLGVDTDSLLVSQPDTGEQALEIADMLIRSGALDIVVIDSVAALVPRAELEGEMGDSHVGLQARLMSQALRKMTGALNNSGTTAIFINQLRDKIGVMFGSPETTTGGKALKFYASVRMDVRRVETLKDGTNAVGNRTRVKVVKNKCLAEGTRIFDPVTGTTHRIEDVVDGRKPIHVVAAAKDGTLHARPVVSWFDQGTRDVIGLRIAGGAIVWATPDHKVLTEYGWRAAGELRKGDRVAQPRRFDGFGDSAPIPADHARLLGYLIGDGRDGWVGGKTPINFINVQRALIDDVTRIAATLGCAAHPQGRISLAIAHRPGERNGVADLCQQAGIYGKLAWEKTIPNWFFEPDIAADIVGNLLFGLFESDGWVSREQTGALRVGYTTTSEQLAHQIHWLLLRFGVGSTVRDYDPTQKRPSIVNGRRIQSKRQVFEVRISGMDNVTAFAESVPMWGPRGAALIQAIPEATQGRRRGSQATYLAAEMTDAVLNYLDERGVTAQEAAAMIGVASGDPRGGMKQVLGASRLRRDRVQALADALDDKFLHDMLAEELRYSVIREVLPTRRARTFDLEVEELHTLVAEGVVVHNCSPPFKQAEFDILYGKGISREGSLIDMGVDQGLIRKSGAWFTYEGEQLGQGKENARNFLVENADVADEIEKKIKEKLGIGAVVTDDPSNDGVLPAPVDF
# Arbovirus anti repeat: second read-out of Arbovirus anti, no call of its own (marks repeat the call); inhibition, %; measured here: 10K subset replicate screen; many hits read low in the repeat;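 first of two repeat runs on a subset; 0% = infected and 100% = uninfected wells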
# Numbers without * were called inactive; ? = inconclusive; · = no result given; & = joins results of further samples. This is a subset, so the mix of outcomes need not match the whole.
SMILES,Mtb bLac sens,YopH inh,Mtb H37Rv,Arbovirus anti,RecA intein inh,others
COCCN(Cc1cc2cc3c(cc2nc1Cl)OCO3)C(=O)Nc1ccc(OC)cc1,4,-30,0%,4,-0.8,
CC(OC(=O)c1cccc(S(=O)(=O)N2CCCCCC2)c1)C(=O)Nc1ccc(S(N)(=O)=O)cc1 (configuration not stated),2,·,·,·,1.9,
CN(C)S(=O)(=O)c1cccc(NC(=O)c2ccc(N3CCOCC3)c([N+](=O)[O-])c2)c1,-2,-32,0%,9,0.3,
O=C(Cn1c(=O)c2cccn2c2ccccc21)NCCc1ccc(Cl)cc1,92,·,·,·,3.1,
Cc1ccc(-c2nc(N3CCOCC3)s[n+]2-c2ccccc2)cc1,2,-7,5%,1,-1.3,
COc1ccc(C2CC(C(F)(F)F)n3nc(C(=O)NCCCn4ccnc4)cc3N2)cc1OC (configuration not stated),-5,-46,2%,-4,-13,
COc1cccc(CNC(=O)Cn2ccc3cc(S(=O)(=O)N4CCCC4)ccc32)c1OC,22,·,·,·,-1.7,
Cc1ccc(S(=O)(=O)N2CCC(C(=O)N[C@@H](C)C(=O)NCc3ccco3)CC2)cc1,-2,-15,2%,1,-2.9,
Cc1ccc(S(=O)(=O)Nc2ccccc2C(N)=O)cc1,-1,-38,-7%,8,5.3,
C/C(=N\N1CCCCC1)c1ccccc1O,-5,·,·,·,-1.4,
c1ccc(CSc2ccc(-c3cccs3)nn2)nc1,10,·,3%,21,1.2,
CCC/C=N/Nc1nnc(Cc2ccc(OC)c(OC)c2)c(=O)[nH]1,-4,·,·,·,-2.5,
C/C(=N/Nc1ccc(C)cc1)C1(C)N(O)C(C)(C)C(c2ccco2)=[N+]1[O-] (configuration not stated),78,·,?,-18,-1.2,
COc1ccc2cc(-c3cc(C(=O)O)c4ccccc4n3)ccc2c1,10,-6,13%,34*,0.8,
O=[N+]([O-])c1ccc(N2CCN(Cc3cccc([N+](=O)[O-])c3)CC2)cc1,15,·,·,·,5.3,
COc1ccc(NS(=O)(=O)c2ccc(Br)s2)cc1OC,-10,-40,5%,11,-4.4,
Cc1cc(C)c(S(=O)(=O)N2CCN(c3ccc([N+](=O)[O-])c(NCC4CCCO4)c3)CC2)c(C)c1 (configuration not stated),7,-10,8%,4,3.8,
O=C(c1ccc(N2C(=O)C3CC=C(Cl)CC3C2=O)cc1)N1CCOCC1 (configuration not stated),4,·,-2%,8,-1.5,
O=C(Nc1ccccc1)N1CCN2C(=O)c3ccccc3C12c1ccccc1 (configuration not stated),-10,-33,2%,-10,8.3,Arbovirus anti repeat=-17
O=C(NCc1csc(-c2ccccc2)n1)c1cc(F)cc2c1OCOC2,0,·,7%,·,3.5,

# The final 3 compounds of the part above are carried over, then new ones follow:
SMILES,Mtb bLac sens,YopH inh,Mtb H37Rv,Arbovirus anti,RecA intein inh,others
O=C(c1ccc(N2C(=O)C3CC=C(Cl)CC3C2=O)cc1)N1CCOCC1 (configuration not stated),4,·,-2%,8,-1.5,
O=C(Nc1ccccc1)N1CCN2C(=O)c3ccccc3C12c1ccccc1 (configuration not stated),-10,-33,2%,-10,8.3,Arbovirus anti repeat=-17
O=C(NCc1csc(-c2ccccc2)n1)c1cc(F)cc2c1OCOC2,0,·,7%,·,3.5,
COc1cccc(C(=O)C2CCCN(Cc3cccn3-c3ccccn3)C2)c1 (configuration not stated),-5,·,3%,-16,1.4,
O=C(Nc1nc2cc3c(cc2s1)OCO3)C1CCCCC1,?,·,·,·,1.0,
CCC(C)C(NC(=O)OC(C)(C)C)C(=O)NC(CC(C)C)C(N)=O (configuration not stated),-11,-12,-5%,13,0.7,
CCOC(=O)N1CCC(NC(=O)CN(C)S(=O)(=O)c2cc3c(cc2Cl)NC(=O)CO3)CC1,-1,-10,6%,4,1.6,
O=C(c1ccccc1)c1ccc(OCC(=O)N2CCOCC2)cc1,-3,·,2%,15,0.9,
CCC(C)(C)n1nnnc1CN1CCC(n2c(C)nc3cc(C(F)(F)F)ccc32)CC1,-5,-87,5%,-4,-0.7,
Cc1ccc(S(=O)(=O)Oc2ccc(/C=C3/C(=N)N4C(=NC3=O)SN=C4S(C)(=O)=O)cc2)cc1,22,·,·,·,5.0,
COc1ccc(NC(=O)/C(Cl)=C(/Cl)S(=O)(=O)Cc2ccc(C)cc2)cn1,·,-18,72%,-36,89*,
Cc1cc2c(ncn2C)c(NS(=O)(=O)c2ccc(F)cc2)c1C,2,·,·,-2,-3.1,
C=CCNC(=S)Nc1sc2c(c1C(N)=O)CCCC2,6,·,-5%,·,-2.8,
CCc1ccc(C2NC(c3ccc(CC)cc3)C([N+](=O)[O-])C(C)(C)C2[N+](=O)[O-])cc1 (configuration not stated),5,-20,-1%,-1,3.1,
CC1(C)CN(C(Cc2ccccc2)C(N)=O)C1=O (configuration not stated),3,·,·,·,0.2,
CC(C)(C)c1nnc2sc(SCC(=O)N3CCc4ccccc43)nn2c1=O,3,·,2%,-2,-1.2,
CCc1nn(CCCC(=O)NC(C)c2ccccc2)c(=O)c2cc3occc3n12 (configuration not stated),1,·,·,·,0.4,
CC1CCN(CCCNC(=O)c2ccc(Cn3c(=S)[nH]c4ccc(Br)cc4c3=O)cc2)CC1,97,·,-8%,-32,-6.7,
Cc1ccccc1CSCC(=O)NCCSc1ccccn1,3,·,1%,-9,-0.3,
CC(NCCc1ccc(S(N)(=O)=O)cc1)C(=O)NCCc1ccc(F)cc1 (configuration not stated),-4,·,·,·,0.2,
CC1CCC(NC(=O)Cn2cc3c(n2)CCCC3)CC1 (configuration not stated),-7,-41,-6%,4,1.9,Arbovirus anti repeat=12
CCOc1cc(/C=C2\CCCc3c2nc2ccccc2c3C(=O)O)ccc1OC,2,·,·,·,-11,
CC1=C(CCN2CCN(C3CCCC3)C(CCO)C2)C(C)(C)CCC1 (configuration not stated),6,·,3%,18,5.7,
CCOC(=O)c1c(-c2ccc(F)cc2)csc1NC(=O)c1c(-c2ccccc2)noc1C,-10,-16,13%,-5,1.2,
O=C(COC(=O)c1cncc(Br)c1)NCc1ccco1,-10,-43,-1%,-3,1.9,
Cc1ccc(S(=O)(=O)NC(=O)NCCCCNC(=O)NS(=O)(=O)c2ccc(C)cc2)cc1,5,-8,10%,5,1.7,
Oc1ccc(/C=N/Nc2ccc(Cl)nn2)cc1O,6,·,·,·,-3.4,
COC(=O)C1C2C=CC3(CN(c4cccc(Cl)c4)C(=O)C13)O2 (configuration not stated),2,·,-1%,7,-1.3,Arbovirus anti repeat=0
CCOc1cc(NC(=O)c2ccccc2C)c(OCC)cc1NC(=O)C1=Cc2ccccc2OC1,1,-23,-4%,-5,-0.6,
Cc1cccc(-c2noc(CCCC(=O)NC3CCCC3)n2)c1,6,·,·,·,3.2,
Cc1cccc(N(CC(=O)NC2CCCCC2)C(=O)c2c(C)noc2C)c1,-7,-23,-15%,-5,-0.1,
O=C(c1ccccc1OCc1ccccc1Br)N1CCN(c2ncccn2)CC1,2,-17,-1%,-17,6.9,
Fc1ccccc1/C=N/Nc1nc2ccccc2o1,4,·,·,·,-9.7,
O=C(CC(C(=O)O)c1ccc(Cl)cc1)c1ccc(Cl)c(Cl)c1 (configuration not stated),2,·,·,·,1.0,
Cc1ccc(-c2csc(NC(=S)NC(=O)c3cc4ccccc4o3)n2)cc1,1,0,1%,0,-0.8,
COc1cc(C(=O)NNC(=S)NC(=O)c2ccccc2C)cc(OC)c1OC,16,-31,71%,-28,-0.6,
COc1c(/C=N/Nc2nc(N3CCCCC3)nc(N3CCCCC3)n2)cccc1[N+](=O)[O-],7,-7,23%,1,0.8,
O=S(=O)(c1ccc(F)cc1)N1CCN(CC(O)COc2ccccc2F)CC1 (configuration not stated),7,·,·,·,-0.6,
CN1CCN(/N=C/c2ccc(Br)cc2)CC1,-10,·,2%,-2,0.3,
Fc1ccc(-n2nnc(-c3ccnc4ccccc34)n2)cc1,9,·,6%,8,3.4,
Cc1cccc(N2CCN(C(=O)c3ccoc3C)CC2)c1C,8,17,-4%,-4,3.2,
O=C(Nc1ccccc1C(=O)N/N=C/c1ccccc1)c1ccco1,0,·,·,·,0.4,
CCCC[N+](CC#Cc1ccccc1)(CCCC)CCCS(=O)(=O)[O-],-9,·,-1%,5,0.1,

# Overlap with the part before: three entries; new compounds follow.
SMILES,Mtb bLac sens,YopH inh,Mtb H37Rv,Arbovirus anti,RecA intein inh,others
Cc1cccc(N2CCN(C(=O)c3ccoc3C)CC2)c1C,8,17,-4%,-4,3.2,
O=C(Nc1ccccc1C(=O)N/N=C/c1ccccc1)c1ccco1,0,·,·,·,0.4,
CCCC[N+](CC#Cc1ccccc1)(CCCC)CCCS(=O)(=O)[O-],-9,·,-1%,5,0.1,
COc1ccc(NC(=O)CSc2nc(O)cc(=O)n2-c2ccccc2)cc1,-5,·,·,·,8.9,
O=C(CSc1ncccc1-c1nc2ccccc2[nH]1)Nc1ccc2c(c1)OCCO2,-5,-43,2%,-4,-1.9,
COc1ccc(OC)c(S(=O)(=O)Nc2cccnc2)c1,-8,-20,0%,4,-0.6,
Cc1cccc(C2Nc3cccc4cccc(c34)N2)c1,11,·,·,·,6.2,
Cc1cccc(NC(=O)c2ccc(S(=O)(=O)N3CCC(C)CC3)cc2)n1,0,·,·,·,18,
COc1ccc(NC(=O)CCN2C(=O)[C@@H]3[C@H](C2=O)[C@H]2C=C[C@@H]3C2)cc1,-9,·,-2%,·,-0.5,
c1ccc(CCCc2nc(-c3cccnc3)no2)cc1,1,·,·,·,0.7,
CCCC[C@@H]1CNCCN1CC1(c2ccccc2)CC1,-5,·,·,·,1.7,
Cc1ccc(S(=O)(=O)c2nnn3c2nc(NC2CCN(Cc4ccccc4)CC2)c2ccccc23)cc1C,92,·,·,·,-1.7,
CCc1c(C2(O)CCCCC2)[nH]c2ccc(C#N)cc12,-9,·,-15%,·,-2.0,
CC(C(N)=O)N1CC(c2ccc(Cl)cc2)CC1=O (configuration not stated),0,-48,-7%,11,-0.3,
CC(C)(C)n1nc2c(c1NC(=O)Cc1ccccc1)CS(=O)(=O)C2,8,·,-3%,17,-0.5,
COCCN1Cc2cccc(C(=O)Nc3ccc(-c4nc5ccccc5[nH]4)cc3)c2C1=O,1,-33,1%,-4,-0.9,
COc1ccc(Br)cc1C(=O)N/N=C/c1ccc2c(c1)n(C)c(=O)n2C,1,-13,-10%,6,-8.0,
Cc1nn(C)c2nc(-c3cccs3)cc(C(F)(F)F)c12,-7,·,2%,5,3.3,
CCOC(=O)c1cnc(SCc2ccc(C)cc2)nc1N,7,-15,1%,0,1.8,
Nc1nnc(-c2cccc(Cl)c2Cl)c(N)n1,-4,-31,-6%&7%,-2&2,-2.1,
COC(=O)c1ccccc1NC(=O)CN(Cc1ccccc1)S(C)(=O)=O,-1,-9,2%,6,-3.1,
COc1ccc(S(=O)(=O)N2CC(C)N(C(=O)N(C)C)C2C)cc1 (configuration not stated),-1,·,·,·,-1.3,
COC(=O)c1ccc(NC(=O)c2ccc3c(c2)C(=O)N(C)C3=O)cc1,4,·,·,·,0.6,
O=C(NC1CCCC1)C(c1ccc(F)cc1)N(C(=O)c1csnn1)C1CC1 (configuration not stated),-5,·,·,·,-0.3,
O=C(c1ccc(F)cc1)N1CCN(c2ncccn2)CC1,2,-99,-1%,10,-5.0,
Cc1ccc(OCC(=O)N/N=C\c2ccc(C)o2)c(C)c1,-1,·,5%,-2,-1.3,
C=CCOc1ccc(C2/C(=C(\O)c3ccc4c(c3)OCCO4)C(=O)C(=O)N2CCCN2CCOCC2)cc1 (configuration not stated),-2,·,·,·,3.5,
O=C1CCCN1CN1CCCCC1,2,-2,1%,8,1.0,
CN1CCn2c1nc(N1CCCCC1)nc2=O,-25,13,-1%,-2,2.7,
O=C(OCC(=O)N1CCN(S(=O)(=O)c2ccc(Cl)cc2)CC1)C1CCC1,-5,·,·,·,-1.5,
CCOC(=O)Cc1csc(SCc2cc(=O)oc3cc(O)ccc23)n1,2,-13,-7%,4,-8.3,
COc1ccc(C(=O)Sc2nncc3ccccc23)cc1,0,·,-8%,3,·,
O=C(Oc1cccnc1)c1cc(S(=O)(=O)N2CCOCC2)ccc1Cl,-6,-37,4%,-1,21,
COc1cc(-c2noc(-c3cccc(Cl)c3)n2)cc(OC)c1OC,64,-20,-5%,-6,-0.1,
COC(=O)[C@H](C)[C@H]1C[C@]1(C)[C@H](NC(=O)OCc1ccccc1)c1ccccc1,-6,11,-2%,0,9.6,
O=C(c1cccs1)N(Cc1ccccn1)Cc1ccco1,-12,-26,-5%,6,-1.0,
O=C(COc1ccc2c3c(c(=O)oc2c1)CCC3)N[C@@H](Cc1ccccc1)C(=O)O,-1,·,·,·,-1.3,
